Screens deposited in PubChem BioAssay by Molecular Libraries Program, Specialized Chemistry Center, University of Kansas.
MgcRacGAP: MgcRacGAP inhibitors via phosphate release, confirmation, orthogonal assay, biochemical, inorganic phosphate detection, Rac1 (AID 652142). 2,400 tested, under 10 active. Rac GTPase-activating protein 1 (Homo sapiens). inhibition, %. MgcRacGAP/Rac1F28L GTP hydrolysis, Biomol green phosphate; active compounds read high; test concentration not given here; none was called active though about 1 in 100 pass the limit;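 active = inhibition over three standard deviations or about 65%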;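 also: full inhibition control lacks the GAP enzyme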
The depositor's hits bear a star. Not all compounds are listed; the hit share may differ from the screen's.

SMILES | MgcRacGAP
Brc1cccc(CNCCc2ccc3c(c2)OCO3)c1 | 5
Cc1ccc(CN2CCN(Cc3ccccc3F)CC2)cc1 | 16
Cc1ccc(N2C(=O)NC(=O)/C(=C/c3ccoc3)C2=O)cc1 | 20
Cn1cccc1/C=C1\C(=O)NC(=O)N(Cc2ccco2)C1=O | 35
CN(C)C1C(=O)C(C(N)=O)=C(O)C2(O)C(=O)C3=C(O)c4c(O)cccc4C(C)(O)C3C(O)C12 (centres undefined) | 24
Cc1nn(CCC#N)c2c1P(=S)(N1CCCC1)OC(c1ccc(F)cc1)=N2 (centres undefined) | 34
O=C1NC(=O)C(=Cc2cccs2)C(=O)N1 | 27
CN(C)[C@@H]1C(=O)C(C(N)=O)=C(O)[C@@]2(O)C(=O)C3=C(O)c4c(O)cccc4[C@@](C)(O)[C@H]3[C@H](O)[C@@H]12 | 36
Cc1ccc(OCC(=O)N2CCN(CC3CC4C=CC3C4)CC2)cc1 (centres undefined) | 1
Cc1cc(/C=C2\C(=O)NC(=O)N(c3ccc(Br)cc3)C2=O)c(C)n1-c1cc(C(=O)O)cc(C(=O)O)c1 | 16
CN(C)c1ccc(NC(=O)CN2C(=O)CN=C(c3ccccc3)c3ccccc32)cc1 | 25
O=C(O)CCn1cc(C=C2C(=O)NC(=S)NC2=O)c(-c2ccccc2)n1 | 52
O=C(Cc1ccccc1)N1CCN(Cc2ccc(F)cc2)CC1 | 22
CC[N+](C)(CC)CCCCOc1ccc2c(c1)C(=O)c1cc(OCCCC[N+](C)(CC)CC)ccc1-2 | 28
CCc1ccc(N2C(=O)NC(=O)/C(=C\c3cc(C)n(-c4cc(C(=O)O)cc(C(=O)O)c4)c3C)C2=O)cc1 | 29
Clc1ccc(OCC#CCN2CCCCCC2)cc1 | 18
CCC1CN2CCc3cc(OC)c(OC)cc3C2CC1CC1NCCc2c1[nH]c1ccc(O)cc21 (centres undefined) | 30
CSc1nc(N)c(N=Nc2ccc([As](=O)(O)O)cc2)c(=O)[nH]1 | 76
N/C(=N\[N+](=O)[O-])N/N=C/c1ccc(O)cc1 | 34
CC1=NCCc2c1[nH]c1cc(O)ccc21 | 25

2 entries from above, field by field:
Structure: Brc1cccc(CNCCc2ccc3c(c2)OCO3)c1
  MgcRacGAP: 5
Structure: Cc1ccc(CN2CCN(Cc3ccccc3F)CC2)cc1
  MgcRacGAP: 16

Five records drawn at random from those above:
SMILES | MgcRacGAP
CCc1ccc(N2C(=O)NC(=O)/C(=C\c3cc(C)n(-c4cc(C(=O)O)cc(C(=O)O)c4)c3C)C2=O)cc1 | 29
Clc1ccc(OCC#CCN2CCCCCC2)cc1 | 18
Cc1ccc(N2C(=O)NC(=O)/C(=C/c3ccoc3)C2=O)cc1 | 20
Cc1ccc(OCC(=O)N2CCN(CC3CC4C=CC3C4)CC2)cc1 (centres undefined) | 1
Cc1cc(/C=C2\C(=O)NC(=O)N(c3ccc(Br)cc3)C2=O)c(C)n1-c1cc(C(=O)O)cc(C(=O)O)c1 | 16
